VACV Venus inh: inhibitors of vaccinia virus (Venus reporter) | Vaccinia virus Venus reporter expression, fluorescence | Potency, µM (series often up to 36.5 µM), for inactives: at the highest dose activity change, negative = inhibition, usual class: inhibitors | 0.46% of 330,000 active | AID 720580; active means well fitted inhibition curve with a large enough effect; inconclusive means small, poorly fitted or top-dose-only effect; inactive means no such curve, though single readings can be large or run the other way; tested in A549 cells; note: nearly all actives have a fitted effect of over 30% in size; inactives centre near -10
VACV mCherry inh: vaccinia inhibition (mCherry reporter); Vaccinia virus mCherry reporter infection, fluorescence; about a quarter of the inactives have no number; Potency, µM (highest dose often 36.5 µM), for inactives: top-dose activity change, negative = inhibition, actives largely listed as inhibitors; 0.63% of 310,000 active; active = well fitted inhibition curve with a large enough effect; inconclusive = small, poorly fitted or top-dose-only effect; inactive = no such curve, though single readings can be large or run the other way; tested in A549 cells; note: nearly all actives have a fitted effect of over 35% in size; inactives centre near -10
* hit, by the source's call; & = joins results of further samples; [ ] = another dose, or the depositor's remark. % is set by controls: 0 for no effect and ±100 for the full control effect; potency is the fitted concentration of half-maximal effect. Hits appear at their usual frequency; overall some 0.87% were active at least once.

Results for CCOc1ccc(S(=O)(=O)N(C)C)cc1-c1nc2c(C(C)(C)C)nn(C)c2c(=O)[nH]1 ?
VACV Venus inh: -1.8%; VACV mCherry inh: -13.1%

Results for C=Nc1ccc(/C=C/c2ccnc3ccccc23)cc1 ?
VACV Venus inh: -25.7%; VACV mCherry inh: -22.5%

Results for Cc1ccc(C(=O)N2CCN(S(=O)(=O)c3ccc(C(C)C)cc3)CC2)s1 ?
VACV Venus inh: -16.9%; VACV mCherry inh: -9.2%

How did CCOC(=O)C[C@H]1c2cc(F)ccc2S(=O)(=O)N1C(C)C do in these assays?
VACV Venus inh: -14.0%&-4.5%; VACV mCherry inh: -9.5%

How did CCCCCCN1C[C@H](O)[C@@H](n2cc(C3CC3)nn2)C[C@@H]1c1ccc(C)cc1 do in these assays?
VACV Venus inh: -11.4%; VACV mCherry inh: -22.8%

What do the screens show for `CCOn1c(=O)c(-c2cc3ccccc3o2)[n+]([O-])c2ccccc21`?
VACV Venus inh: -2.3%; VACV mCherry inh: -13.0%

What do the screens show for `CC1(C(=O)NS(=O)(=O)c2cccc(C#N)c2)CCN1C(=O)C1(c2ccc(Cl)cc2)CC1` (stereo not drawn)?
VACV Venus inh: -1.5%; VACV mCherry inh: 1.6%

What do the screens show for `c1ccc(CN2CCN(c3nc(N4CCOCC4)c4ccccc4n3)CC2)cc1`?
VACV Venus inh: -12.5%; VACV mCherry inh: -11.5%

Results for Cc1ccc2cc(CN(CCc3ccccc3)C(=S)NCCCN(C)C)c(=O)[nH]c2c1 ?
VACV Venus inh: -13.3%; VACV mCherry inh: -1.9%

What do the screens show for `CCOc1ccc(-c2cc(C(=O)NCCCn3ccnc3)c3cc(Br)ccc3n2)cc1`?
VACV Venus inh: inconclusive; VACV mCherry inh: inconclusive

What do the screens show for `O=C(/C=C/Nc1ccccc1OC(F)(F)F)C(F)(F)F`?
VACV Venus inh: -5.9%

Results for Cc1ccsc1/C=N/NC(=O)Cn1nc(C)c([N+](=O)[O-])c1C ?
VACV Venus inh: -2.6%[7.34 µM]; VACV mCherry inh: -7.1%[7.34 µM]

What do the screens show for `COc1ccc(Br)cc1C1SCCN1S(C)(=O)=O` (stereo not drawn)?
VACV Venus inh: 2.7%

Results for CCOC(=O)Nc1ccc(N2CCOCC2)c(S(=O)(=O)Nc2ccc(Cl)cc2)c1 ?
VACV Venus inh: -6.4%; VACV mCherry inh: -28.3%

How did COc1ccc([C@@H]2[C@@H]3C(=O)N(C(C)(C)C)C(=O)[C@@H]3[C@]3(CC(C)C)C(=O)N(c4ccc(C(F)(F)F)cc4)C(=O)N23)cc1 do in these assays?
VACV Venus inh: -20.5%; VACV mCherry inh: inactive

What do the screens show for `CCC(CC)C(=O)N(C)c1c(C)nc2c(OCC(=O)C(C)(C)C)cccn12`?
VACV Venus inh: -1.9%; VACV mCherry inh: 1.3%

How did COc1ccc(Cl)cc1NC(=O)c1cnc2sccn2c1=O do in these assays?
VACV Venus inh: -29.1%; VACV mCherry inh: -22.0%

How did O=C1CS(=O)CN1c1ccc(Oc2ccccc2)cc1 (stereo not drawn) do in these assays?
VACV Venus inh: -9.3%; VACV mCherry inh: inactive

What do the screens show for `CC[C@@]12C(=O)N(c3cccc(F)c3)C(=O)N1[C@H](c1ccc(F)cc1)[C@@H]1C(=O)N(C3CCCCC3)C(=O)[C@@H]12`?
VACV Venus inh: -19.3%; VACV mCherry inh: inactive

Results for Cc1ccc(NC(=O)Cn2cc(C(=O)c3ccccc3)c3ccccc32)c(C)c1 ?
VACV Venus inh: -10.3%; VACV mCherry inh: -4.9%

Results for Cc1ccc(-c2nnn(CC(=O)NCCC3=CCCCC3)n2)cc1 ?
VACV Venus inh: -4.4%; VACV mCherry inh: -11.4%

Results for Cc1cc(N2CCC(C(=O)Nc3ccc(Cl)cc3)CC2)n2nc(C)c(-c3ccc(Cl)cc3)c2n1 ?
VACV Venus inh: 5.1%; VACV mCherry inh: 16.6%

Results for O=C(Nc1c2c(nc3c1CCC3)CCCC2)c1ccccn1 ?
VACV Venus inh: -12.8%; VACV mCherry inh: 0.2%

How did C=CCNC(=O)NC(=O)c1csc([N+](=O)[O-])c1 do in these assays?
VACV Venus inh: -5.1%; VACV mCherry inh: -17.4%

How did CCCCN(C(=O)c1cccc(S(=O)(=O)N2CC(C)OC(C)C2)c1)c1c(N)n(CCCC)c(=O)[nH]c1=O (stereo not drawn) do in these assays?
VACV Venus inh: -10.7%; VACV mCherry inh: -11.1%

How did C=CCNC(=S)N(CC)c1cccc2ccccc12 do in these assays?
VACV Venus inh: -9.2%; VACV mCherry inh: -16.2%

Results for CCCn1c(N)c(N(CCOC)C(=O)c2cc3c(s2)CCCCC3)c(=O)[nH]c1=O ?
VACV Venus inh: -9.1%; VACV mCherry inh: -17.6%

How did O=C(c1cccc(Cl)c1)N1CCn2c1nc1ccccc12 do in these assays?
VACV Venus inh: 4.5%; VACV mCherry inh: 5.6%

What do the screens show for `CCOC(=O)C(=C1Nc2ccccc2N1)n1c(-c2ccco2)nc2ccccc21`?
VACV Venus inh: 4.2%; VACV mCherry inh: -0.7%

Results for C=C(C)c1cccc(C(C)(C)NC(=O)Nc2ccc(C(C)=O)cc2)c1 ?
VACV Venus inh: -18.8%; VACV mCherry inh: -5.3%

Sorted by SMILES length (falling): part of the list above
How did CCOC(=O)C[C@H]1c2cc(F)ccc2S(=O)(=O)N1C(C)C do in these assays?
VACV Venus inh: -14.0%&-4.5%; VACV mCherry inh: -9.5%

Results for Cc1ccc(-c2nnn(CC(=O)NCCC3=CCCCC3)n2)cc1 ?
VACV Venus inh: -4.4%; VACV mCherry inh: -11.4%

Results for C=Nc1ccc(/C=C/c2ccnc3ccccc23)cc1 ?
VACV Venus inh: -25.7%; VACV mCherry inh: -22.5%

Continued:
What do the screens show for `C=C1C=C(C)n2ncc(C(=O)Nc3cccc(C(=O)Nc4cccc(C(F)(F)F)c4)c3)c2N1`?
VACV Venus inh: -17.5%; VACV mCherry inh: -14.9%

Results for CCOc1ccccc1NC(=O)CCCN1C(=S)NC(C)(C)CC1C (stereo not drawn) ?
VACV Venus inh: -11.0%; VACV mCherry inh: -15.1%

What do the screens show for `COc1ccc(C(C(=O)NC(C)(C)C)N(Cc2cccnc2)C(=O)CCC(=O)Nc2cc(C)on2)cc1` (stereo not drawn)?
VACV Venus inh: -10.5%; VACV mCherry inh: -16.1%

Results for O=C(CNC(=O)c1ccccc1Cl)N/N=C/c1ccc2c(c1)OCO2 ?
VACV Venus inh: -0.1%; VACV mCherry inh: -3.1%

What do the screens show for `CCSc1nnc(NC(=O)C(C)(C)C)s1`?
VACV Venus inh: -6.1%; VACV mCherry inh: -9.2%

What do the screens show for `CCCC(C(=O)NC1CCCC1)N(CCN(CC)CC)C(=O)c1snc(C(N)=O)c1N` (stereo not drawn)?
VACV Venus inh: -0.8%; VACV mCherry inh: -5.4%

How did COCCCn1c(-c2ccc(OC)cc2)cc(C(=O)NC2CCCCCCC2)c1C do in these assays?
VACV Venus inh: -27.0%; VACV mCherry inh: inconclusive

Results for Cc1ccc(O)c(C(=O)c2cnn(C(=O)COc3ccc(Cl)cc3)c2)c1 ?
VACV Venus inh: -0.1%; VACV mCherry inh: -4.3%

How did O=C(CC(C(=O)O)c1ccccc1)c1cccs1 (stereo not drawn) do in these assays?
VACV Venus inh: -7.2%; VACV mCherry inh: -16.5%

What do the screens show for `CC(C)c1ccc(NC(=O)c2snc3ccc(Cl)cc23)cc1`?
VACV Venus inh: 0.0%; VACV mCherry inh: -4.5%

As a working copy, some entries already given.
What do the screens show for `C=C1C=C(C)n2ncc(C(=O)Nc3cccc(C(=O)Nc4cccc(C(F)(F)F)c4)c3)c2N1`?
VACV Venus inh: -17.5%; VACV mCherry inh: -14.9%

Results for CCOc1ccccc1NC(=O)CCCN1C(=S)NC(C)(C)CC1C (stereo not drawn) ?
VACV Venus inh: -11.0%; VACV mCherry inh: -15.1%

Remaining list, next part:
How did CC1CCc2c(sc(NC(=O)C3c4ccccc4Oc4ccccc43)c2C(N)=O)C1 (stereo not drawn) do in these assays?
VACV Venus inh: -14.2%; VACV mCherry inh: -24.6%

What do the screens show for `CC(=O)Cc1nsc(Nc2ccc(C)cc2)n1`?
VACV Venus inh: -12.8%; VACV mCherry inh: -2.5%

How did Cc1ccc(S(=O)(=O)Nc2cccc(C(=O)NCCCn3ccnc3)c2)cc1F do in these assays?
VACV Venus inh: -21.0%; VACV mCherry inh: inactive

How did COc1ccccc1NS(=O)(=O)c1cc(NC(=O)/C=C/c2cccs2)ccc1N1CCOCC1 do in these assays?
VACV Venus inh: -24.5%; VACV mCherry inh: -5.4%

What do the screens show for `COc1ccc(CNC2C[C@H]3CCCC(=O)N4CC[C@@H](C2)[C@@H]34)cc1` (stereo partly drawn)?
VACV Venus inh: -12.3%; VACV mCherry inh: inactive

Results for Cc1ccc(C(=O)Nc2ccc3c(c2)OCO3)cc1S(=O)(=O)N1CCOCC1 ?
VACV Venus inh: -13.9%; VACV mCherry inh: -1.4%

How did C[C@]12c3[nH]c4cc(-c5ccco5)ccc4c3CCN1C(=O)[C@@H](CC(=O)NCC13CC4CC(CC(C4)C1)C3)C[C@@H]2C(=O)N1CCOCC1 do in these assays?
VACV Venus inh: 10µM*; VACV mCherry inh: inconclusive

Results for COc1ccc(CNC(=O)c2cc3c(s2)CS(=O)C3)cc1 (stereo not drawn) ?
VACV Venus inh: -17.5%; VACV mCherry inh: -8.2%

How did Cn1c2ccccc2c2ccc3c(c21)C(=O)C=CC3=O do in these assays?
VACV Venus inh: 12.9%; VACV mCherry inh: -10.7%

Results for CCCNC(=O)C1(C)CCCN(C(=O)c2c(F)ccc(C)c2F)C1 (stereo not drawn) ?
VACV Venus inh: -2.2%; VACV mCherry inh: 29.0%

How did CC(SCc1ccccc1)C(=O)N/N=C/c1cccs1 (stereo not drawn) do in these assays?
VACV Venus inh: -20.9%; VACV mCherry inh: -12.1%

What do the screens show for `COc1cc(/C=C2\SC(=O)NC2=O)ccc1OCc1ccc(Cl)nc1`?
VACV Venus inh: 3.2%; VACV mCherry inh: -24.1%

Results for O=C(NCCc1ccccn1)C1CCN(S(=O)(=O)c2ccc(Cl)cc2)CC1 ?
VACV Venus inh: 1.0%; VACV mCherry inh: -9.1%

How did CC(=O)Nc1ccc(NC(=S)Nc2ccc(F)cc2)cc1 do in these assays?
VACV Venus inh: -6.9%; VACV mCherry inh: inactive

How did COC(=O)c1cc(CSc2nc3ccccc3[nH]2)oc1C do in these assays?
VACV Venus inh: -19.5%; VACV mCherry inh: inactive

How did CCn1c(SCC(=O)N=Nc2c(O)[nH]c3ccccc23)nc2ccccc21 do in these assays?
VACV Venus inh: -17.2%; VACV mCherry inh: -3.2%

Results for COc1ccc(C2CC2/C(C)=N/OC(=O)c2cccs2)cc1 (stereo not drawn) ?
VACV Venus inh: -21.5%

Results for Cc1ccc(S(=O)(=O)N(C)CC(=O)OCc2nnc(-c3ccccc3)o2)cc1 ?
VACV Venus inh: -5.4%; VACV mCherry inh: -1.7%

How did CCn1c(CCc2ccccc2)n[nH]c1=S do in these assays?
VACV Venus inh: -5.8%; VACV mCherry inh: inactive

How did CCN(CCCNC(=O)CCNC(=O)Cn1ccc2ccccc2c1=O)c1ccccc1 do in these assays?
VACV Venus inh: -28.9%

What do the screens show for `COc1ccc(-n2c(O)c(C=NCc3ccc4c(c3)OCO4)c(=O)[nH]c2=O)cc1`?
VACV Venus inh: -8.7%; VACV mCherry inh: -18.9%

How did O=C(CC[C@H]1O[C@@H](n2ccc(=O)[nH]c2=O)[C@H](O)[C@@H]1O)N[C@H](Cc1ccccc1)C(=O)NCc1ccccc1 do in these assays?
VACV Venus inh: -3.7%; VACV mCherry inh: inactive

Results for O=C(Nc1cccnc1)/C(N=Nc1cccnc1)=C(\O)c1ccccc1 ?
VACV Venus inh: -1.2%; VACV mCherry inh: inactive

What do the screens show for `CCc1cc(C(=O)Cc2nc3ccccc3s2)c(O)cc1OCC(=O)O`?
VACV Venus inh: 17.0%; VACV mCherry inh: -2.8%

Results for Cc1ccccc1NS(=O)(=O)c1cc(C(=O)Nc2cccnc2)ccc1C ?
VACV Venus inh: -14.1%; VACV mCherry inh: -25.6%

Results for CCCn1c2c(c(O)c(C(=O)Nc3ccc(OC)cc3)c1=O)CCCC2 ?
VACV Venus inh: 8.2%

How did COC(=O)C1=C[C@@H](C(=O)OC)[C@@H]2C3=C(C(=O)[C@@]2(C)NC(=O)c2ccccc2)[C@H](C)n2c(=O)n(C)c(=O)n2[C@@H]3C1 do in these assays?
VACV Venus inh: -0.3%; VACV mCherry inh: inactive

How did CCC(=O)N1CCc2cc(S(=O)(=O)NC(CC(C)C)C(=O)NCc3ccc(F)cc3)ccc21 (stereo not drawn) do in these assays?
VACV Venus inh: -10.3%; VACV mCherry inh: -12.0%

What do the screens show for `O=c1[nH]c(=O)n(-c2cccc(Cl)c2)c(O)c1C=NCCN1CCCCC1`?
VACV Venus inh: -14.7%; VACV mCherry inh: -1.6%

How did Cc1c(C(C)(C)O)[nH]c2ccc(C(F)(F)F)cc12 do in these assays?
VACV Venus inh: -15.4%; VACV mCherry inh: -2.0%

Results for Cc1cccc(NC(=O)N2CC(=O)Nc3sc4c(c3C2c2ccccc2)CCCC4)c1C (stereo not drawn) ?
VACV Venus inh: -13.7%; VACV mCherry inh: -3.7%

Results for CSC1=NSC2=NC(=O)/C(=C/c3coc4ccc(O)cc4c3=O)C(=N)N12 ?
VACV Venus inh: 27.0%; VACV mCherry inh: -4.1%

Results for CCc1ccccc1NC(=O)C(=O)NCCCN1CCOCC1 ?
VACV Venus inh: -0.9%; VACV mCherry inh: 3.2%
